Screening data as filed in PubChem.
Calb FLC – affects C. albicans growth with fluconazole; AID 1979; hit rate 0.57% among 300,000; growth inhibition, % (test concentration not listed); C. albicans CaCi-2 (fluconazole-resistant clinical isolate) + fluconazole, Alamar Blue growth, 48 h;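 active = most replicates above 75%; inconclusive = exactly half above 75%; inactive = most below 75%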;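 also: all wells also contain fluconazole at 8 µg/ml as a sub-toxic cotreatment; 0% = median of DMSO wells and 100% = median of geldanamycin control wells; wells of about 8 µL received 7.5 nL stock; the first replicate is given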
LANA-H2B inh – blocks KSHV LANA binding to histone H2A/H2B; Q9QR71; cell-free LANA-H2A/H2B peptide, fluorescence polarization; inhibition, % (no concentration beside the values); hit rate 0.6% among 320,000; AID 2629; in the data active = inhibition mostly above about 10%, no sharp cut-off; inactive = mostly below about 6.7%;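 also: stock transfer was 7.5 nL into about 10 µL; 0% = median of vehicle wells and 100% = median of positive control wells; one replicate is shown; the record names a cut of 25% in any replicate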
B2AR ag – activates human beta-2 adrenergic receptor causing internalization; P07550; Am2.2-beta2AR cells, FAP receptor internalization, flow cytometry; reference of the scale not given here; response, % (test concentration not listed); hit rate 0.43% among 340,000; AID 504454;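 active = response above a set limit, near 3 SD of response in nonfluorescent compounds, cut at about 42% in these data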;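 also: stock transfer was 100 nL into about 11 µL; a reference agonist was the positive control; negative values mostly stem from fluorescent compounds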
Target sequence (P07550 whole entry, looked up): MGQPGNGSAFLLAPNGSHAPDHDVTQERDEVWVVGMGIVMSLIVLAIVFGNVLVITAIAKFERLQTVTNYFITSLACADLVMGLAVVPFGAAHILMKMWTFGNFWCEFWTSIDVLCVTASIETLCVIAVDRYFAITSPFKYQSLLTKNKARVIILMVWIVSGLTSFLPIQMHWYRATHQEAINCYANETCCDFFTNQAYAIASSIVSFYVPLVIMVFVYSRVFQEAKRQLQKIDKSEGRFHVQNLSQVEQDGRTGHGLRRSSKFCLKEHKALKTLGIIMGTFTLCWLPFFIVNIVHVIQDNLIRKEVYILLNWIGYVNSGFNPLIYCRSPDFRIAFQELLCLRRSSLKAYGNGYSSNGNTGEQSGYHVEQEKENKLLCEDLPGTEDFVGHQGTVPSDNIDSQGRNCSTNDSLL
HNF4A DNA FP – change in binding of human HNF4 alpha to DNA; P41235; HNF4a-FITC DNA binding, fluorescence polarization, 1 h; activity change, % at 10 µM; hit rate 0.3% among 360,000; in the data active = activity change above about 30%, passing the limit was not always enough;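 also: controls were the assay level and a saturating level of protein; the project sought stronger binding though the title names inhibitors; some compounds called inactive have numbers as strong as hits; positive values seem to mean higher polarization but the record does not say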
Target sequence (P41235 whole entry, looked up): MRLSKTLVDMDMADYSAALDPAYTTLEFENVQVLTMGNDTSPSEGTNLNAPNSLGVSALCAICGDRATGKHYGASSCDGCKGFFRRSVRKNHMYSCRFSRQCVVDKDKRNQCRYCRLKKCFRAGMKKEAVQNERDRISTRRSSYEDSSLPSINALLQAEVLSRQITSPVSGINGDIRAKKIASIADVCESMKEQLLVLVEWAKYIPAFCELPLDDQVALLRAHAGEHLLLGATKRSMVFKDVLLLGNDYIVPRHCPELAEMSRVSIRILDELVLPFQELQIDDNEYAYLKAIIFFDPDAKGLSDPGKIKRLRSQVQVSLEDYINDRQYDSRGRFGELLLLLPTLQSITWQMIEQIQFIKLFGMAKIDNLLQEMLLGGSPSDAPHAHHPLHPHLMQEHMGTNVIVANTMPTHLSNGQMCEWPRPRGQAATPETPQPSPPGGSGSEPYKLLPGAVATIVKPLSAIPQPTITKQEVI
RanGTP-Impb inh – disruptors of Ran-importin-beta complex formation – biochemical, FRET, CFP-Ran, YFP-importin-beta, homogeneous, primary screen. cell-free CFP-Ran/YFP-importin-beta FRET ratio. inhibition, % (concentration not given with the values). hit rate 1.1% among 300,000. AID 2216;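 active = most replicates above 15%; inconclusive = exactly half above 15%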;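 also: 0% = DMSO wells and 100% = Ran loaded with GDP instead of GTP; wells of about 40 µL received 100 nL stock; the first replicate is given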
Vif TR-FRET – inhibitors of Vif binding to APOBEC3G peptide, primary screen, biochemical, TR-FRET, GST-Vif 1-94, biotin-A3G peptide, dose response retest (AID 1117319). inhibition, %, or IC50 in µM where a hit was titrated. hit rate 0.57% among 260,000. TR-FRET GST-Vif / biotin-A3G peptide binding; higher % means a stronger effect; test concentration not given here; strong numbers were not always called active;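 active = above the screen mean plus three standard deviations and confirmed in dose response; inconclusive = results disagree or hit not tested in dose response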;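 also: Vif residues 1-94 fused to GST binding biotinylated APOBEC3G peptide 110-148; 0% = full assay without inhibitor and 100% = GST in place of GST-Vif; retest series ran down from 100 µM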
ALR inh – blocks human ALR sulfhydryl oxidase activity; purified ALR, DTT oxidation, H2O2 HRP-luminol luminescence; hit rate 3.8% among 290,000; P55789; AID 485317; inhibition, % (concentration not given with the values);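 active = mean and each replicate at 75% or more; inconclusive = only one of the two met; inactive = neither met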;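 also: stock transfer was 7.5 nL into about 7.5 µL; 0% = neutral wells and 100% = wells with inactivated enzyme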
Target sequence (P55789 whole entry, looked up): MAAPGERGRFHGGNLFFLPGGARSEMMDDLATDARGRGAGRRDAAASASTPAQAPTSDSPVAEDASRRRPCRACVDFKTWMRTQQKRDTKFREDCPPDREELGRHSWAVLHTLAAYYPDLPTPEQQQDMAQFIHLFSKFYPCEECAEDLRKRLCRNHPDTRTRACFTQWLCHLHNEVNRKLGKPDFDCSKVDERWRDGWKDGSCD
* = called active by the depositor.

What do the screens show for `CCn1c2ccccc2c2cc(NC(=S)N3CCOCC3)ccc21`?
Calb FLC: 11.9; LANA-H2B inh: -6.0; B2AR ag: 7.1; HNF4A DNA FP: 0.5; RanGTP-Impb inh: 1.4; Vif TR-FRET: 0.8%; ALR inh: 28.3

What do the screens show for `O=S(=O)(Nc1ccc(-n2cnnn2)cc1)c1cccc(Cl)c1`?
B2AR ag: -1.0; HNF4A DNA FP: -0.8; Vif TR-FRET: 9.1%

What do the screens show for `Cc1cc(C)n(Cc2ccc(F)cc2)c(=O)c1C#N`?
Calb FLC: inconclusive; LANA-H2B inh: 3.5; B2AR ag: 1.6; HNF4A DNA FP: 0.0; RanGTP-Impb inh: -2.9; Vif TR-FRET: 8.5%; ALR inh: -8.6

Results for COc1ccc(CCNC(=O)C2CCN(S(=O)(=O)c3ccc(OC)cc3)CC2)cc1 ?
Calb FLC: 9.8; LANA-H2B inh: 1.4; B2AR ag: 3.0; HNF4A DNA FP: -0.1; RanGTP-Impb inh: 2.9; ALR inh: -8.0

What do the screens show for `COc1ccc(C(CNC(=O)c2cc3ccccc3cc2OC)N2CCCC2)cc1` (centres undefined)?
Calb FLC: -12.0; LANA-H2B inh: 3.4; B2AR ag: -11.7; HNF4A DNA FP: -0.8; RanGTP-Impb inh: -0.7; Vif TR-FRET: 7.8%; ALR inh: -6.2

Results for CCC(=O)Nc1c2c(nn1-c1ccccc1C)CSC2 ?
Calb FLC: 25.0; LANA-H2B inh: -1.4; B2AR ag: -18.5; HNF4A DNA FP: -4.1; RanGTP-Impb inh: -1.6; Vif TR-FRET: inconclusive; ALR inh: 0.0

How did CCOc1ccc(C(F)(F)F)cc1NC(=O)COc1ccc(C(F)(F)F)cc1[N+](=O)[O-] do in these assays?
Calb FLC: 2.4; LANA-H2B inh: -10.0; B2AR ag: 3.9; HNF4A DNA FP: 24.0; RanGTP-Impb inh: 0.3; Vif TR-FRET: -5.3%

Results for O=C(Nc1ccccc1)c1cc([N+](=O)[O-])ccc1NCc1cccnc1 ?
Calb FLC: inconclusive; LANA-H2B inh: 5.4; B2AR ag: -24.1; HNF4A DNA FP: 2.5; RanGTP-Impb inh: -9.0; ALR inh: -4.8

How did Cc1ccc(S(=O)(=O)NCCc2c[nH]c3ccccc23)cc1 do in these assays?
Calb FLC: 5.6; LANA-H2B inh: 1.1; B2AR ag: 0.1; HNF4A DNA FP: -1.7; RanGTP-Impb inh: -4.0; Vif TR-FRET: -2.7%; ALR inh: 12.2

How did CCC(=O)N1CCc2cc(Br)cc(S(=O)(=O)CC(=O)OC)c21 do in these assays?
Calb FLC: 0.1; LANA-H2B inh: 2.2; B2AR ag: 9.3; HNF4A DNA FP: -0.5; RanGTP-Impb inh: 4.8; Vif TR-FRET: 32.2%; ALR inh: -0.8

What do the screens show for `Cc1nc2cc(C(=O)O)ccc2n1-c1ccc(F)cc1F`?
Calb FLC: -14.0; LANA-H2B inh: 3.4; B2AR ag: 5.7; HNF4A DNA FP: -2.1; RanGTP-Impb inh: 1.7; Vif TR-FRET: -0.8%; ALR inh: -8.9

Results for CCCn1c(NCc2cccc(OC)c2OC)nc2ccccc21 ?
Calb FLC: 11.4; LANA-H2B inh: -0.6; B2AR ag: -1.3; HNF4A DNA FP: 0.8; RanGTP-Impb inh: 2.1; Vif TR-FRET: inconclusive; ALR inh: 97.8*

Results for COc1ccc(Cc2nnc(N/N=C/c3ccc(O)cc3)[nH]c2=O)cc1OC ?
Calb FLC: 4.7; LANA-H2B inh: 1.6; B2AR ag: -10.6; HNF4A DNA FP: -2.2; RanGTP-Impb inh: -0.7; ALR inh: 41.4

Results for Cc1cc(Nc2ccc3c(c2)OCCO3)n2ncnc2n1 ?
Calb FLC: 1.2; LANA-H2B inh: -3.4; B2AR ag: 3.0; HNF4A DNA FP: -1.8; RanGTP-Impb inh: -4.9; Vif TR-FRET: 3.6%; ALR inh: -5.4

How did CNC(=O)CCCN1C(=O)c2ccccc2Sc2ncccc21 do in these assays?
Calb FLC: 4.0; LANA-H2B inh: -1.8; B2AR ag: -4.1; HNF4A DNA FP: 0.4; RanGTP-Impb inh: -2.0; Vif TR-FRET: -5.8%; ALR inh: 0.1

Results for CCOC(=O)c1cccc(NC(=O)COc2nsnc2N2CCOCC2)c1 ?
Calb FLC: -0.9; LANA-H2B inh: -1.0; B2AR ag: 8.5; HNF4A DNA FP: 2.9; RanGTP-Impb inh: 4.5; Vif TR-FRET: 3.0%; ALR inh: -4.5

How did O=C(c1ccc2ccccc2c1)C1CCCN(C(=O)c2noc3c2CCCC3)C1 (centres undefined) do in these assays?
Calb FLC: 0.9; LANA-H2B inh: -4.7; B2AR ag: 4.7; HNF4A DNA FP: 1.1; RanGTP-Impb inh: 0.3; ALR inh: 4.4

Results for C[C@H](O)Cc1cc2ccccc2c(=O)o1 ?
LANA-H2B inh: -0.4; B2AR ag: 2.3; HNF4A DNA FP: -1.1; ALR inh: -1.0

What do the screens show for `COc1ccc(C)cc1NC(=O)C(=O)c1cn(CC(=O)N2CCCC2)c2ccccc12`?
Calb FLC: -10.2; LANA-H2B inh: -1.8; B2AR ag: 18.2; HNF4A DNA FP: 1.9; RanGTP-Impb inh: -3.3; ALR inh: -10.7

How did Cc1ccsc1/C=N/NC(=O)c1ccc2c(c1)OCCO2 do in these assays?
Calb FLC: -2.3; LANA-H2B inh: 1.5; B2AR ag: -2.1; HNF4A DNA FP: -0.6; RanGTP-Impb inh: 3.8; ALR inh: -6.0

Results for Oc1c(C=Nc2cccc3nsnc23)ccc2ccccc12 ?
Calb FLC: -3.6; LANA-H2B inh: 0.8; RanGTP-Impb inh: 6.6; Vif TR-FRET: inconclusive; ALR inh: 25.2

What do the screens show for `Cc1cc(N2CCOCC2)nc2ccc(NC(=S)NCc3ccc4c(c3)OCO4)cc12`?
Calb FLC: -7.3; LANA-H2B inh: 4.6; B2AR ag: -9.1; HNF4A DNA FP: -0.4; RanGTP-Impb inh: 8.5; Vif TR-FRET: -13.7%; ALR inh: 98.8*

How did CCC(C)(C)C(=O)Nc1cc([N+](=O)[O-])ccc1F do in these assays?
Calb FLC: 6.2; LANA-H2B inh: -1.7; B2AR ag: -7.5; HNF4A DNA FP: -0.2; RanGTP-Impb inh: -5.6; Vif TR-FRET: -1.4%; ALR inh: -3.2

What do the screens show for `Cc1ccccc1NC(=O)c1cn2c(nc3ccccc32)c(C#N)c1C`?
Calb FLC: 1.2; LANA-H2B inh: -2.8; B2AR ag: -8.7; HNF4A DNA FP: 3.9; RanGTP-Impb inh: 9.7; Vif TR-FRET: -16.2%; ALR inh: -4.1

Results for COC(=O)c1nc2nc(C)cc(C(F)(F)F)n2n1 ?
Calb FLC: -6.8; LANA-H2B inh: -5.7; B2AR ag: -11.2; HNF4A DNA FP: 6.9; RanGTP-Impb inh: 1.3; Vif TR-FRET: -4.9%

How did Cc1cccc(NS(=O)(=O)c2cccc(C(=O)NCC(C)(C)N3CCOCC3)c2)c1 do in these assays?
Calb FLC: -1.9; LANA-H2B inh: -2.8; B2AR ag: -1.4; HNF4A DNA FP: -1.1; RanGTP-Impb inh: 5.3; ALR inh: 2.0

Results for COc1ccc(C)cc1NS(=O)(=O)c1ccc(NC(=O)CN(c2cc([N+](=O)[O-])ccc2C)S(C)(=O)=O)cc1 ?
Calb FLC: 10.5; LANA-H2B inh: 4.2; B2AR ag: 1.9; HNF4A DNA FP: -0.6; RanGTP-Impb inh: -3.2; ALR inh: -0.6

How did Cc1ccc(-c2csc(N(CCO)CCCn3c(C(F)(F)F)nc4ccccc43)n2)cc1 do in these assays?
Calb FLC: 16.8; LANA-H2B inh: 2.7; B2AR ag: -6.0; HNF4A DNA FP: 2.4; RanGTP-Impb inh: 5.8; ALR inh: -0.4

Results for COc1ccc(-c2cc(C(=O)NCCCN3CCOCC3)c3cc(C(C)C)ccc3n2)cc1 ?
Calb FLC: -6.2; LANA-H2B inh: 1.5; B2AR ag: 7.9; HNF4A DNA FP: 1.8; RanGTP-Impb inh: -0.3

What do the screens show for `CCCCOCCCNC(=O)c1c(-c2ccccc2)noc1C`?
Calb FLC: -10.3; LANA-H2B inh: 1.9; B2AR ag: -2.7; HNF4A DNA FP: -0.8; RanGTP-Impb inh: 4.6; Vif TR-FRET: -1.5%; ALR inh: -10.6

Reprinted from the part before: 2 entries, then new ones.
Results for COc1ccc(-c2cc(C(=O)NCCCN3CCOCC3)c3cc(C(C)C)ccc3n2)cc1 ?
Calb FLC: -6.2; LANA-H2B inh: 1.5; B2AR ag: 7.9; HNF4A DNA FP: 1.8; RanGTP-Impb inh: -0.3

What do the screens show for `CCCCOCCCNC(=O)c1c(-c2ccccc2)noc1C`?
Calb FLC: -10.3; LANA-H2B inh: 1.9; B2AR ag: -2.7; HNF4A DNA FP: -0.8; RanGTP-Impb inh: 4.6; Vif TR-FRET: -1.5%; ALR inh: -10.6

How did O=C1OC2(O)C3C4C=CC(C4)C3C(=O)N2c2ccccc21 (centres undefined) do in these assays?
Calb FLC: -9.9; LANA-H2B inh: -4.0; B2AR ag: 3.2; HNF4A DNA FP: 1.9; RanGTP-Impb inh: 5.4; Vif TR-FRET: 1.7%; ALR inh: -9.0

What do the screens show for `CCCCOC(=O)c1ccc(NS(=O)(=O)c2cc(-c3nnnn3CC)ccc2OC)cc1`?
Calb FLC: 19.3; LANA-H2B inh: 1.1; B2AR ag: 2.6; HNF4A DNA FP: -3.0; RanGTP-Impb inh: 6.2; Vif TR-FRET: 8.4%; ALR inh: -0.3

What do the screens show for `O=C(CCS(=O)(=O)c1ccccc1)N(CCCN1CCOCC1)c1nc2c(F)cccc2s1`?
Calb FLC: 4.2; LANA-H2B inh: -1.2; B2AR ag: 111.2*; HNF4A DNA FP: 0.7; RanGTP-Impb inh: -1.4

Results for CC(=O)c1ccc(S(=O)(=O)N2CCN(c3ccccc3F)CC2)cc1 ?
Calb FLC: -12.2; LANA-H2B inh: 3.1; B2AR ag: -9.4; HNF4A DNA FP: -2.2; RanGTP-Impb inh: 2.2; Vif TR-FRET: 4.9%; ALR inh: 1.2

Results for Cc1ccc(C(=O)N2CCN(c3ccccc3F)CC2)cc1NC1=NC2CS(=O)(=O)CC2S1 (centres undefined) ?
Calb FLC: 2.5; LANA-H2B inh: 3.8; B2AR ag: -4.6; HNF4A DNA FP: -3.2; RanGTP-Impb inh: 3.7; Vif TR-FRET: -6.3%; ALR inh: -6.0

How did O=C1C(Cc2ccc(O)cc2)NC(=S)N1Cc1ccccc1 (centres undefined) do in these assays?
Calb FLC: -4.1; LANA-H2B inh: -0.5; B2AR ag: 0.6; HNF4A DNA FP: 0.5; RanGTP-Impb inh: 3.5; Vif TR-FRET: -0.6%

How did COc1ccc(CCNC(=O)c2ccc(N3CCCCS3(=O)=O)cc2)cc1OC do in these assays?
Calb FLC: 2.4; LANA-H2B inh: -4.4; B2AR ag: 10.1; HNF4A DNA FP: -3.0; RanGTP-Impb inh: 3.4; Vif TR-FRET: 0.7%; ALR inh: -4.4

Results for Cc1ccc(CNC(=O)C2CC(=O)N(C3CCCC3)C2)cc1 (centres undefined) ?
LANA-H2B inh: -1.5; B2AR ag: -4.1; HNF4A DNA FP: 2.5; Vif TR-FRET: -6.6%; ALR inh: -1.1

Results for CC(=O)N1N=C(c2ccccc2OC(=O)/C=C/c2ccccc2)CC1c1ccccc1 (centres undefined) ?
Calb FLC: -29.6; LANA-H2B inh: -10.8; B2AR ag: -8.8; RanGTP-Impb inh: 0.2; Vif TR-FRET: -7.7%; ALR inh: -0.8

How did CCOc1ccc(C(=O)OCCCN(C)C)cc1 do in these assays?
Calb FLC: 0.6; LANA-H2B inh: -4.9; B2AR ag: 0.4; HNF4A DNA FP: 0.0; RanGTP-Impb inh: -0.2; Vif TR-FRET: -11.3%; ALR inh: 3.8
